Screening results (PubChem)
HCMV UL50-53 inh – inhibitors of HCMV UL50-UL53 interaction, biochemical, HTRF; normalized percent inhibition; AID 1918969, 2023; actives 0.15% (n = 190,000); inhibition, % (concentration not given with the values);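 active = both replicates at 50% or more, plus weaker picks with an unusually low signal ratio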;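 also: stock transfer was 100 nL into about 20 µL; 0% = negative control wells and 100% = wells with untagged competitor protein; inactives centre near -12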
Sa growth 42C – S. aureus growth inhibition at 42 and 30 °C, primary screen, LtaS inhibitor project, RN4220, two temperatures | OD600, 20 h, 42 °C; active compounds read low | relative growth, % (test concentration not listed) | actives 0.53% (n = 170,000) | AID 720641, 2013;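 active = growth at 42 °C up to 50% and 20 or more points under that at 30 °C, or under 10% at both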;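 also: 300 nL library stock went into each well; scaled to the means of positive and negative controls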
GIV Gai3 FP – inhibitors of GIV peptide binding to Galpha-i3, primary screen, biochemical, fluorescence polarization, FITC-GIV GBA peptide, rat Galphai3. Guanine nucleotide-binding protein G(i) subunit alpha-3 (Rattus norvegicus), P08753. 90 min; active compounds read low; scaled: aluminum fluoride 0%, vehicle 100%. percent of control (FP), % (no concentration beside the values). actives 0.42% (n = 210,000);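 active = replicate mean at 85% of control or lower, very high polarization wells dropped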;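 also: wells of about 15 µL received 100 nL stock; the first replicate is given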
Target sequence (P08753 whole entry, looked up): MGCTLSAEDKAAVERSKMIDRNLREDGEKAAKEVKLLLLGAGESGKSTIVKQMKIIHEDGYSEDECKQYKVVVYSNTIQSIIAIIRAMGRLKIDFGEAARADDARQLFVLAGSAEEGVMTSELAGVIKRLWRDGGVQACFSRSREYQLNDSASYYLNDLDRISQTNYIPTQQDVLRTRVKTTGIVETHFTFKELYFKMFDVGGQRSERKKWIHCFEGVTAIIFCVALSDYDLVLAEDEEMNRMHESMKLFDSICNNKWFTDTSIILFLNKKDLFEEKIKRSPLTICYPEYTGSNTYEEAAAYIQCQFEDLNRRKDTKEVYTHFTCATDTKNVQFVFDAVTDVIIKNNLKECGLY
Sa growth 42C second temp – also measured in Sa growth 42C; calls as there; relative growth, %; measured here: growth at 30 °C;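 optical density after 20 h as mean of two plates; 100% = untreated growth and lower means inhibition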
* = called active by the depositor; . = no result given; & = joins results of further samples. Compounds were not picked by outcome. About 0.82% of those tested had a hit in this group.

SMILES	HCMV UL50-53 inh	Sa growth 42C	Sa growth 42C second temp	GIV Gai3 FP
CCOc1cc(C(=O)NCCN(C)C)cc(OCC)c1OCC	-21.4	87.3	89.2	102.5
COc1ccccc1S(=O)(=O)Cc1ccc(C(=O)NCCN2CCCC2)o1	0.1	115.6	104.1	100.3
CC1=CC(=C(C#N)C#N)C=C(C)N1CCC(C)C	-16.7	106.8	87.5	.
COc1ccc(-n2nc(C(=O)Nc3ccc(F)cc3F)c(=O)n(C)c2=O)cc1	-42.0	.	.	98.5
COc1ccccc1-c1cc(C(=O)NCc2cccs2)no1	1.8	114.7	92.5	97.8
CC(=O)NC(=O)c1cc2cc(Cl)cc(Cl)c2oc1=Nc1ccc(C#N)cc1	-8.3	.	.	104.8
O=C(NCCC1=CCCCC1)C1CCN(C(=O)N2CCOc3ccccc32)CC1	-13.1	100.7	91.8	103.5
CCc1nn(-c2ccccc2)c2nc(-c3ccccc3)nc(SCC(=O)Nc3cc(OC)cc(OC)c3)c12	0.3	.	.	104.4
Cc1nn(C(=O)c2cccs2)c(N)c1-c1ccccc1	-7.8	120.6	83.4	104.1
CC1(C(=O)c2ccccc2)C2c3cc(Br)ccc3OC(=O)C21C(=O)N1CCOCC1 (configuration not stated)	-20.6	112.3	94.2	104.0
N#CC(C#N)=CNc1cc(C(F)(F)F)ccc1N1CCOCC1	-47.0	87.5	90.7	105.1
O=C(NCCc1ccc(Cl)cc1)C1CCN(C(=O)NC2CCCCC2)CC1	-5.9	99.2	80.6	100.7
CC(C)Oc1ccc(CNC(=O)CCCN2C(=O)CCn3nc(-c4cccn4C)cc32)cc1	.	87.7	78.8	104.8
Cc1ccc2nc(CSc3nnc(NC(=O)c4ccc(C(C)(C)C)cc4)s3)cc(=O)n2c1	.	76.1	91.2	102.8
CCOC(=O)c1ccc(NC(=O)c2sc(NC(=O)CCc3ccccc3)c(C(=O)OCC)c2C)cc1	-14.3	.	.	103.6
COc1ccc(C(=O)NCc2nnc(SC)n2-c2ccc(OC)cc2)cc1	-19.7	96.4	90.6	96.9
COC(=O)Cn1nnnc1-c1ccc(C)cc1	13.0	105.3	100.2	102.5
Cc1cc(C)c2c(n1)SCCN2C(=O)NCCC(=O)NCCC(C)C	-10.5	.	.	105.3
O=S(=O)(Cc1nc2ccccc2[nH]1)c1ccccc1	-18.2	91.8	83.7	.
CN(C)CCNc1cc(N2CCOCC2)c2noc3c2c1C(=O)c1ccccc1-3	-73.0	113.4	83.1	-68.2*
Cc1ccc(Cn2ccsc2=NC(=O)CSc2nnc(-c3ccc(Cl)cc3)o2)cc1	-7.2	109.0	88.8	.
CCCC1NC(=S)N(c2ccccc2)N1 (configuration not stated)	-6.2	57.5	41.2	102.9
CNC(=O)C1CCC(CNS(=O)(=O)c2ccc(C)cc2)CC1 (configuration not stated)	.	135.7	84.4	100.4
Oc1ccc2ccccc2c1CN1CCOCC1	-36.1	82.7	74.5	105.4
CCCN(Cc1cccs1)C(=O)Nc1ccccc1CC	.	83.9	80.8	104.8
COc1cc(C2C(C#N)=C(N)Oc3n[nH]c(C(F)(F)F)c32)ccc1OCC(N)=O (configuration not stated)	-12.0	71.3	77.5	99.1
CCN(CC)c1ccc(NC(=O)Nc2ccc(OCc3ccccc3)cc2)cc1	2.1	97.1	85.9	97.0
CC(C)(C)n1ncc2c(=O)n(CC(=O)NC3CCCC3)cnc21	1.2	98.5	100.0	103.3
O=C(CSc1nc2ccccc2c(=O)n1-c1ccccc1F)NC1CC1	-25.6	104.1	75.7	.
CC1COc2c(N3CCN(C)CC3)c(F)cc3c(=O)c(C(=O)N4CCN(c5ncccn5)CC4)cn1c23 (configuration not stated)	-16.9	70.8	91.8	.
Cc1ccc(Cl)cc1-n1ncc2c(Nc3cccc(C)c3C)ncnc21	.	100.6	85.5	106.9
CN1CCN(CCCN2c3ccccc3Sc3ccc(C(F)(F)F)cc32)CC1	-39.7&-5.6&-9.7&0.8&-5.9&-58.5&-4.0&-23.3	87.7&88.7&106.4	76.8&60.0&78.0	102.8&109.2&96.6
Cc1ccc2nc(N(Cc3cccnc3)C(=O)C3CCCCC3)sc2c1	.	99.5	88.4	102.7
C=CCn1c(Cl)c(/C=N/NC(N)=O)s/c1=N\S(=O)(=O)c1cccs1	-25.6	106.8	86.0	.
CCc1cnc2c(c1SCC(=O)NCc1ccc(F)cc1)c(=O)n(C)c(=O)n2C	.	100.8	97.2	104.5
N#C/C(=C\c1ccccc1[N+](=O)[O-])c1nc(-c2cc3c(ccc4ccccc43)oc2=O)cs1	-9.6	.	.	101.2
CCOC(=O)c1c(C)oc2nc(C)nc(NCC3CCCN3CC)c12 (configuration not stated)	-2.2	.	.	94.8
CCCCC1SC(=Nc2ccccc2)N(S(=O)(=O)c2ccccc2)C1=O (configuration not stated)	-4.3	.	.	103.4
CC(=O)N1CCOc2cc(S(=O)(=O)N3CCCCC3C)ccc21 (configuration not stated)	.	118.3	82.0	103.1
CCOc1ccccc1C1C(C(=O)Nc2ccccc2OC)=C(C)Nc2c(C(=O)Nc3ccc(F)cc3)cnn21 (configuration not stated)	23.1	.	.	104.4
Cc1cccc(C(=O)N2CCC(C)CC2)c1	-6.1	103.5	108.5	106.2
CC1(C)N=C(C(=O)c2ccccc2)N(O)C1(C)O (configuration not stated)	.	97.3	85.9	98.0
CC(C)COc1ccc(S(=O)(=O)n2cc(F)c(=O)[nH]c2=O)cc1	.	60.0	39.5	100.7
COc1ccc(/C=C2\CCC(C3CCCC3)C2=O)cc1Cn1cccn1 (configuration not stated)	.	91.2	81.0	105.2
Cc1c(CCNC(=O)Cc2ccccc2)sc2nc(-c3ccc(F)cc3)nn12	.	113.3	89.5	98.1&97.2
O=C1CCC(C(=O)OCC(=O)Nc2ccc(N3CCOCC3)cc2)=NN1	-6.1	89.1	94.3	.
O=C(Nc1cccc(F)c1)c1nnc(COCC(=O)N2CCN(c3ccccc3)CC2)s1	-40.8	.	.	106.6
c1ccc2c(c1)NC(c1ccc3c(c1)CCO3)n1cccc1-2 (configuration not stated)	-14.5	56.4	55.1	112.0
COc1cc2c(C(=O)NC3CCCC(C)C3C)cn(C)c(=O)c2cc1OC (configuration not stated)	-25.1	100.4	88.9	99.9
CCC1CCCCN1C(=O)CSc1nc(-c2ccc(OC)cc2)cc(C(F)(F)F)n1 (configuration not stated)	-23.1	100.8	75.6	104.1

Entries of single compounds, quoted from the list:
Listed for c1ccc2c(c1)NC(c1ccc3c(c1)CCO3)n1cccc1-2 (configuration not stated) = HCMV UL50-53 inh: -14.5; Sa growth 42C: 56.4; Sa growth 42C second temp: 55.1; GIV Gai3 FP: 112.0
Listed for Cc1cccc(C(=O)N2CCC(C)CC2)c1 = HCMV UL50-53 inh: -6.1; Sa growth 42C: 103.5; Sa growth 42C second temp: 108.5; GIV Gai3 FP: 106.2

The list continues.
SMILES	HCMV UL50-53 inh	Sa growth 42C	Sa growth 42C second temp	GIV Gai3 FP
CC(OC(=O)c1ccc2ccccc2c1O)C(=O)N1CCc2ccccc21 (configuration not stated)	-6.3	92.9	94.3	.
CCCCNS(=O)(=O)c1ccc2nc(SCCC)[nH]c2c1	-26.7	98.6	86.1	.
CCC(=O)Nc1ccc(-c2nnc3c4ccccc4c(C)nn23)cc1	-10.2	106.1	89.9	104.0
COc1cc(-c2nc(Cn3nnc(C(=O)Nc4ccc(C)cc4C)c3C)c(C)o2)cc(OC)c1OC	-5.7	101.3	91.9	101.8
O=C(CSC(=S)N1CCOCC1)c1cc(Br)cc(Br)c1O	-28.2	78.2	83.3	.
Cc1nc(/C=C(/N)C#N)cn1-c1ccccc1	-11.1	111.6	101.9	.
CCOC(=O)c1cnc(NNC(=O)C(F)(F)F)nc1C(F)(F)F	-23.2	77.7	74.8	96.6
Cc1cc(=O)oc2cc(NS(=O)(=O)c3cccs3)ccc12	-25.9	80.1	80.2	104.5
COCCCNC(=O)CSc1nc2cc3c(cc2c(=O)n1CCCCCC(=O)NCc1ccc2c(c1)OCO2)OCO3	.	100.4	85.6	104.7
CCCCc1ccc(NC(=O)Cn2nnc3sc4c(c3c2=O)CCC(C)C4)cc1 (configuration not stated)	-13.5	99.6	86.8	101.6
CN(C)CC[C@@H](c1ccc(Br)cc1)c1ccccn1	1.3	90.7	75.9	104.0
CCC(=O)/C=C(\O)c1ccc(Br)cc1	-14.8	81.5	38.6	.
Cc1ccc(C2=NCN(c3ccc(C(=O)O)cc3)C(=S)N2)cc1	.	102.8	90.5	93.6
Cc1cc(=O)n(C(N)=S)[nH]1	6.1&-11.9	129.4	82.7	100.9
O=S(=O)(NC1CCCCCC1)c1ccc(-c2nnc(C3CCC3)o2)s1	-11.9	.	.	110.4
Cc1nn(-c2ccccc2)c2sc(C(=O)NCCc3ccc(S(N)(=O)=O)cc3)cc12	-10.2	66.0	88.2	.
CC1SCCN1S(=O)(=O)c1ccc(Br)cc1 (configuration not stated)	-8.2	110.5	85.5	.
CCCCCc1c(O)c2ccccc2[nH]c1=O	21.4	99.0	94.0	93.9
COc1ccc(C2=NN3C(C(=O)c4ccc(Br)cc4)Oc4ccccc4C3C2)cc1 (configuration not stated)	-11.7	.	.	98.6
C=CCn1c(/N=C/c2ccc(Cl)cc2)nc2ccccc21	.	113.1	88.3	107.3

Next section; it opens with the six that closed the last part.
SMILES	HCMV UL50-53 inh	Sa growth 42C	Sa growth 42C second temp	GIV Gai3 FP
O=S(=O)(NC1CCCCCC1)c1ccc(-c2nnc(C3CCC3)o2)s1	-11.9	.	.	110.4
Cc1nn(-c2ccccc2)c2sc(C(=O)NCCc3ccc(S(N)(=O)=O)cc3)cc12	-10.2	66.0	88.2	.
CC1SCCN1S(=O)(=O)c1ccc(Br)cc1 (configuration not stated)	-8.2	110.5	85.5	.
CCCCCc1c(O)c2ccccc2[nH]c1=O	21.4	99.0	94.0	93.9
COc1ccc(C2=NN3C(C(=O)c4ccc(Br)cc4)Oc4ccccc4C3C2)cc1 (configuration not stated)	-11.7	.	.	98.6
C=CCn1c(/N=C/c2ccc(Cl)cc2)nc2ccccc21	.	113.1	88.3	107.3
Nc1ccc2nc(-c3ccc(N)c(Cl)c3)[nH]c2c1	-6.3	80.8	131.2	109.1
CC12CCC(c3c(C(F)(F)F)n[nH]c31)C2(C)C (configuration not stated)	-21.6	99.5	21.7	95.8
Cc1[nH]c2ccccc2c1C1(O)C(=O)Nc2ccc(Cl)cc21 (configuration not stated)	-29.0	78.2	78.4	108.4
O=[N+]([O-])c1cccc(C2Oc3ccccc3C3CC(c4ccccc4)=NN32)c1 (configuration not stated)	-2.4	.	.	98.9
Cc1cc2c(cc1S(=O)(=O)N1CCC(C(=O)NC3CCCCC3)CC1)OCC(=O)N2	8.7	.	.	99.2
O=c1[nH]c(=S)[nH]c2sc3c(c12)CCC3	-21.4	.	.	101.8
COc1ccc(-c2nc3ccccc3c(=O)n2NC(=O)c2ccc(Cl)cc2Cl)cc1OC	-18.7	.	.	102.6
CC(=O)NC(c1ccccc1F)C1CCCCC1=O (configuration not stated)	-26.0	.	.	96.8
Cn1nc(C(C)(C)C)c(NC(=O)c2ccc(F)cc2)c1C(C)(C)C	-23.9	92.9	83.1	96.7
COc1cc2c(cc1OC)C(C)N(c1ncnc3c1cnn3C)CC2 (configuration not stated)	-8.8	105.1	77.5	99.4

Part of the list above in order of heavy-atom count, lowest first:
SMILES	HCMV UL50-53 inh	Sa growth 42C	Sa growth 42C second temp	GIV Gai3 FP
CC12CCC(c3c(C(F)(F)F)n[nH]c31)C2(C)C (configuration not stated)	-21.6	99.5	21.7	95.8
COc1cc2c(cc1OC)C(C)N(c1ncnc3c1cnn3C)CC2 (configuration not stated)	-8.8	105.1	77.5	99.4
Cc1cc2c(cc1S(=O)(=O)N1CCC(C(=O)NC3CCCCC3)CC1)OCC(=O)N2	8.7	.	.	99.2

Other compounds:
SMILES	HCMV UL50-53 inh	Sa growth 42C	Sa growth 42C second temp	GIV Gai3 FP
C=CCn1c(SC(CCO)C(=O)NCc2ccco2)nc2sc3c(c2c1=O)CCC3 (configuration not stated)	-3.3	110.0	99.5	102.3
CCN1C(=O)/C(=C\C(C)=C\c2ccccc2)SC1=S	.	108.6	94.5	100.0
N#Cc1nc2c(-c3nc4ccccc4s3)c(N)n(-c3ccc(Cl)cc3)c2nc1C#N	-2.2	104.0	72.0	.
CN(Cc1coc(-c2ccccc2)n1)Cc1coc(-c2ccccc2)n1	-6.9	-1.3*	-1.0*	.
O=C(Nc1cccc(-c2noc(C3CCCC3)n2)c1)c1cnccn1	-12.3	.	.	99.5
COc1ccc(CNC(=O)Cn2nnc(-c3ccc(C(F)(F)F)cc3)n2)cc1	.	99.6	84.5	104.8
O=c1[nH]n(-c2ccccc2Cl)c(=O)c2ccccc12	9.9	108.5	94.0	106.2
Cc1ccc(CNC(=O)c2ccc(CS(=O)Cc3cccc(Cl)c3)o2)cc1 (configuration not stated)	.	115.7	82.8	107.8
O=C(CN1C(=O)CCc2cc(S(=O)(=O)N3CCOCC3)ccc21)Nc1cccc(C(F)(F)F)c1	.	90.7	82.9	111.1
O=C(NC1CCS(=O)(=O)C1)c1c(Cl)cccc1Cl (configuration not stated)	-14.4	93.9	85.8	98.8
O=C(O)c1ccc(CSc2nc3nc[nH]c3c(=O)[nH]2)cc1	2.6	.	.	108.0
Cn1ncc2c(NCc3ccc(F)cc3)nc(N3CCCC3)nc21	-8.4	.	.	101.8
CCOC(=O)C(CC)n1cnc2c(cnn2-c2ccc(Cl)cc2)c1=O (configuration not stated)	2.5	115.3	93.0	103.1
Cc1cccn2c(=O)c(C=Nc3ccccc3)c(NCCO)nc12	-39.1	62.1	105.3	.
